# HPGD inh – HPGD (human) dehydrogenase inhibition; P15428; purified HPGD, NADH fluorescence kinetic, PGE2 substrate; Potency, µM, for the others: top-dose activity change, negative = inhibition, hits mostly inhibitors; 4.3% of 150,000 active; active = well fitted inhibition curve with a large enough effect (not every such curve was filed as active); inconclusive = small, poorly fitted or top-dose-only effect, or another doubt; inactive = no such curve, though single readings can be large or run the other way;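 note: top concentration of the series not given in the record; plate controls included wells without enzyme; inactives centre near -10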
# Target sequence (P15428 whole entry, looked up): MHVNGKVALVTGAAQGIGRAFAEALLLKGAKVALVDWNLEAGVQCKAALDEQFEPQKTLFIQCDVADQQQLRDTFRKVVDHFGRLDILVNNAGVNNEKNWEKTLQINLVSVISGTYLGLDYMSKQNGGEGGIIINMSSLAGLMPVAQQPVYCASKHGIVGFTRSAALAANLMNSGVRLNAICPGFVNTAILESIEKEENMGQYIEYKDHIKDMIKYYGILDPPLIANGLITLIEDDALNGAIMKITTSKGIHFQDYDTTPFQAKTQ
#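 20 nM HPGD preincubated 15 min at room temperature with compound in 50 mM Tris-HCl pH 8, 0.01% Tween 20. Started with 1 mM NAD+ and 30 uM prostaglandin E2; NADH fluorescence (360/450 nm) read 5 times over 30-s intervals, last minus first.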
# Active calls of the source: *; ? = inconclusive; & = joins results of further samples; ! = repeats disagree. % is set by controls: 0 for no effect and ±100 for the full control effect; potency is the fitted concentration of half-maximal effect. Not all compounds are listed; the hit share may differ from the screen's.
Molecule | HPGD inh
COc1cc2c(cc1NC(=O)c1cccnc1)CCCC2 | -2%
CCOC(=O)C1Sc2[nH]c(=O)sc2C(c2ccc(Cl)cc2)C1C(=O)OCC (centres undefined) | 4µM*
NC1=N[C@H](c2ccc(Cl)cc2)N(c2ccc(S(=O)(=O)Nc3ncccn3)cc2)C(N)=N1 | -4%
CC1=CC2=NC(=O)/C(=C\c3cc(C)n(-c4ccc(F)cc4)c3C)C(=N)N2O1 | ?
O=S(=O)(NCCc1ccccc1)c1cccc2nsnc12 | -7%
CC1(C)CC(=O)C=C(NNC(=O)c2ccccc2O)C1 | -12%
COc1ccc(NC(=O)CN2CCN(CC(=O)Nc3ccccc3Cl)CC2)cc1 | -1%
O=C(CCN1C(=O)/C(=C/c2cccc(Br)c2)SC1=S)NNC(=O)c1cccnc1 | -2%
C=C1c2cccc(C(F)(F)F)c2O[C@H](C(=O)OCC)[C@@H]1CCC(C)C | 0%
O=C1NCCN1c1ncc([N+](=O)[O-])s1 | -24%

# The results go on:
Molecule | HPGD inh
CN1CCN([C@@H](c2ccccc2)c2ccc(Cl)cc2)CC1 | -3%
C=C(C)C1CC=C(CN2CCC(O)CC2)CC1 (centres undefined) | -1%
CCOC(=O)c1cc2c(=O)n3cc(C)ccc3nc2n(Cc2cccnc2)c1=N | ?
Cc1ccc(N(CC(=O)Nc2cc(Cl)ccc2Oc2ccccc2)S(C)(=O)=O)c(C)c1 | -11%
Cc1ccc(NC(=O)COC(=O)C2CC2C)c(S(=O)(=O)N2CCCCC2)c1 (centres undefined) | -6%
COc1ccc2nc(NC(=O)c3cccc(OCc4c(C)noc4C)c3)sc2c1 | ?
CCOc1ccc(OCCOCCN2CCOCC2)cc1 | -12%
O=c1cc(CN2CCN(c3ccc(F)cc3)CC2)c2cc3c(cc2o1)CCCC3 | -26%
Cc1cccc(N2CCN(C(=O)/C=C/c3cccs3)CC2)c1C | ?
CC(C)(C)n1nc2c(c1NC(=O)Cc1cccs1)CSC2 | -1%

# Next section.
Molecule | HPGD inh
Cc1ccc(S(=O)(=O)CCC(=O)Nc2cccc(C)c2)cc1 | -13%
COc1ccc(NC(=O)c2ccccc2C)c(OC)c1 | -25%
CC(C)OC(=O)CSc1ncnc2c1cnn2Cc1ccccc1 | -22%
Cc1cccc(-c2noc(CCCC(=O)N3CCOCC3)n2)c1 | -2%
Cc1ccc(NC(=O)CNc2ccc(OC(C)C)cc2)cc1 | -8%
CCCSC1=C(C#N)C(c2ccccc2C)CC(=O)N1 (centres undefined) | ?
CC(C)c1ccc(NC(=O)COC(=O)CSc2nnc(N)s2)cc1 | -20%
COc1cc(OC)nc(Oc2ccccc2C(=O)Oc2ccc(F)cc2Cl)n1 | -9%
O=C(CN1C(=O)C2C3CCC(C3)C2C1=O)Oc1ccc2ccccc2c1 (centres undefined) | -10%
O=[N+]([O-])c1ccc2c(c1)OCCOCCOCCOCCOCCOCCO2 | -1%

# (more compounds)
Molecule | HPGD inh
Cc1ccc2c(c1)c(C)c(C)n2CC(O)Cn1nc(C)c(Br)c1C (centres undefined) | -27%
Cn1c2c(c(=O)c3ccccc31)C[C@@H](O)C(C)(C)O2 | -14%
CS(=O)(=O)N(CC(=O)N1CCCCC1)c1ccc(Cl)c(C(F)(F)F)c1 | -16%
Fc1ccc(/C=N/n2c(-c3cccs3)n[nH]c2=S)cc1 | 4µM*
Cc1oc2c(C)c3oc(=O)c4c(c3cc2c1C)CCC4 | -16%
O=C1Nc2ccc(F)cc2C12Nc1ccccc1-c1nnc(SCc3ccccc3)nc1O2 (centres undefined) | -15%
Cc1noc(C)c1-c1cc(Nc2ccc(F)cc2)ncn1 | -14%
CCCCCCSc1nsc(N)n1 | -11%
Cc1nc(NS(=O)(=O)c2ccccc2C)c2c3c(sc2n1)CCC3 | ?
CCCN1/C(=C(/C#N)C2=NS(=O)(=O)c3ccccc32)N(C)c2ccccc21 | -8%

# Additional records follow:
Molecule | HPGD inh
COC(=O)Nc1ccc2c(c1)N(C(=O)CCN1CCN3CCCC3C1)c1ccccc1CC2 (centres undefined) | -12%
CCOc1ccc(C(=O)Nc2nncs2)cc1OCC | -14%
CC1CCCCN1CCNC(=O)C1CCN(S(=O)(=O)c2cccc3cccnc23)CC1 (centres undefined) | -9%
CCc1cc2c(=O)c(-c3nc4ccccc4n3C)c(C)oc2c(CN(CC)CC)c1O | ?
Cc1ccc(C(=O)N/N=C/c2ccc(-c3ccccc3[N+](=O)[O-])o2)cn1 | -20%
CCC(=O)Nc1nc2ccccc2n1Cc1ccc(C)cc1 | -6%
CC1=C(C)CC2C(=O)N(Cc3ccccc3)C(=O)C2C1 (centres undefined) | 2%
O=C(COc1ccc(Cl)cc1Cl)NN=C1CCCCC1 | -9%
O=C(/C=C/c1ccccc1)NC(NC(=S)Nc1ccc(C(=O)O)cc1)C(Cl)(Cl)Cl (centres undefined) | -10%
O=C(c1cccc(F)c1)N1C2C=CC(C2)C1(C(F)(F)F)C(F)(F)F (centres undefined) | -5%

# Next section
Molecule | HPGD inh
CCOc1cc(C(N)=O)cc(OCC)c1OCC | -7%
Cc1ccc2c(c1)[C@@H]1CN(C)CC[C@@H]1N2S(=O)(=O)c1ccc([N+](=O)[O-])cc1 | -27%
CCOC(=O)C1CCN(CC(O)COc2ccc(C(C)(C)CC)cc2)CC1 (centres undefined) | -6%
Cc1ccccc1NC(=O)NCCCN1CCN(c2ccccc2)CC1 | -9%
COc1ccc(C2c3c(ncn(Cc4ccco4)c3=N)Oc3ccc4ccccc4c32)cc1 (centres undefined) | -16%
COC(=O)c1c(NC(=O)c2ccc(C)c(S(=O)(=O)Nc3ccccc3C)c2)sc2c1CCCC2 | ?
CCCCC1=CC2=C(c3ccco3)C(=O)C(C)(OC(=O)c3ccc(OC)cc3)C(=O)C2=CN1CCCN(CC)CC (centres undefined) | -6%
Cn1c(=O)oc2cc(S(=O)(=O)N3CCc4ccccc4C3)ccc21 | -5%
O=C(N/N=C/c1cccs1)C1CC(=O)N(c2ccccc2)C1 (centres undefined) | ?
O=C(Nc1ccc(Cl)cc1)N(Cc1cccs1)Cc1cccs1 | -5%

# (continued)
Molecule | HPGD inh
O=C(CN1CCOCC1)Nc1ccccc1Sc1ccccc1 | -1%
COc1cc(/C=C(\C#N)C(=O)Nc2cccnc2)ccc1OC(C)C | -16%
Cc1ccc(C(=O)NC(=S)/C=C2\N(C)c3ccccc3C2(C)C)cc1 | -10%
C=C(C(C)=O)C(O)c1cccs1 (centres undefined) | -6%
c1ccc2c(CCNc3ncnc4nc[nH]c34)cccc2c1 | -16%
O=C(NC1CCCCCC1)C1CCCN(S(=O)(=O)c2cccs2)C1 (centres undefined) | -16%
O=C(CNC(=O)Cc1ccccc1)NCC(=O)OCC(=O)c1ccc(Cl)cc1 | -11%
CCCCC[C@H](O)/C=C/[C@H]1[C@H](O)CC(=O)[C@@H]1CCCCCCC(=O)O | -10%
Cc1ccccc1Nc1nnc(C)c(=O)n1N | -19%
O=C(c1ccc(S(=O)(=O)c2cccc(Cl)c2)c([N+](=O)[O-])c1)N1CCN(Cc2ccccc2)CC1 | -13%

# New compounds follow
SMILES | HPGD inh
Cn1c(=O)cc(OCCCC(=O)N2CCCCC2)c2ccccc21 | 7.1µM*
CCOC(=O)N1CCN(CCC(=O)Nc2ccc(OC(F)(F)F)cc2)CC1 | 2%
O=C(c1ccncc1)N1CCC[C@@]2(CCN(Cc3ccncc3)C2)C1 | -13%
CCc1nc2ccccc2c(C(=O)OCC(=O)Nc2cccc(S(=O)(=O)N3CCOCC3)c2)c1C | ?
O=C(Cc1ncc(C(F)(F)F)cc1Cl)N1CCN(c2ccc(F)cc2)CC1 | -1%
Fc1ccc(-c2nc3nc4ccccc4nc3n2Cc2ccco2)cc1 | -28%
CC(=O)c1cc2c(cc1NC(=O)CSc1nnc(C)s1)OCO2 | -4%
Cc1ccc(NC(=O)C(=O)c2cn(CC(=O)N3CCCCC3)c3ccccc23)cc1 | -24%
O=C(Cc1cccs1)Nc1nnc(SCC(=O)N2CCCCC2)s1 | -20%
CCOC(=O)c1c(-c2ccccc2)oc2ccc(O)c(CN3CCN(C)CC3)c12 | 2%
COc1ccc(C(=O)Nc2ccc3[nH]c(-c4cccc(OC)c4)cc(=O)c3c2)cc1 | -13%&-22%
CCCCN(C)C(=O)c1ccc(CS(=O)(=O)c2ccccc2C)o1 | 4%
CSc1nc2ccccc2cc1/C=C(\C#N)c1cccc(Cl)c1 | ?
O=C(CCCCCN1C(=O)c2ccccc2C1=O)Nc1ccc(S(=O)(=O)N2CCCCC2)cc1 | -8%
Cc1cc(C(=O)N/N=C/c2cc(Br)ccc2OC(=O)c2ccccc2)n[nH]1 | -15%
O=C(O[C@@H]1OC2COC(=O)c3cc(O)c(O)c(O)c3-c3c(cc(O)c(O)c3O)C(=O)O[C@@H]([C@H]1O)[C@@H]2O)c1cc(O)c(O)c(O)c1 | 1.8µM*
CCNC(=O)C1CCN(S(=O)(=O)c2ccc(F)cc2)CC1 | -4%
O=C(c1ccccc1S(=O)(=O)NCc1ccccc1)N1CCCCC1 | -4%
CSCCC(NS(=O)(=O)c1ccc(Cl)cc1)C(=O)OCC(=O)N1CCOCC1 (centres undefined) | -4%
COc1ccc(-c2nnc3sc(-c4ccco4)nn23)cc1OC | ?
CCN(CC)CCCN(C(C)=O)c1nc(-c2cc(OC)ccc2OC)cs1 | -3%
O=C(c1csc2ccccc12)N1CCN(c2ccc(Cl)c(Cl)c2)CC1 | -4%
Cc1ccc2c(Cl)c(C(=O)Nc3cc(C)on3)sc2c1 | -14%
COc1ccc(-c2cc(C(=O)Nc3nc4c(C)cccc4s3)c3ccccc3n2)cc1OC | ?
O=C(CCn1nc(-c2ccc(Cl)cc2)c2ccccc2c1=O)NCCN1CCOCC1 | -22%
O=C(CN(Cc1ccco1)C(=O)c1cc(=O)[nH]c2ccccc12)Nc1ccccc1Br | -8%
CCN(CC)S(=O)(=O)c1ccc2[nH]cc(C(=O)NCCN3CCCCCC3)c(=O)c2c1 | ?
Cc1noc(C)c1C(=O)N1CCN(Cc2ccccc2)CC1 | -6%
CCOc1ccc(N2C(=O)CC(N(CCc3ccc(OC)c(OC)c3)C(=S)Nc3ccccc3)C2=O)cc1 (centres undefined) | -21%
Cn1ncc(Br)c1C(=O)OCC(=O)Nc1nc(-c2ccccc2)cs1 | -18%

# Arranged by number of heavy atoms (rising): part of the list above
SMILES | HPGD inh
Cc1noc(C)c1C(=O)N1CCN(Cc2ccccc2)CC1 | -6%
CC(=O)c1cc2c(cc1NC(=O)CSc1nnc(C)s1)OCO2 | -4%
Fc1ccc(-c2nc3nc4ccccc4nc3n2Cc2ccco2)cc1 | -28%
O=C(Cc1ncc(C(F)(F)F)cc1Cl)N1CCN(c2ccc(F)cc2)CC1 | -1%
CSCCC(NS(=O)(=O)c1ccc(Cl)cc1)C(=O)OCC(=O)N1CCOCC1 (centres undefined) | -4%
COc1ccc(C(=O)Nc2ccc3[nH]c(-c4cccc(OC)c4)cc(=O)c3c2)cc1 | -13%&-22%
CCc1nc2ccccc2c(C(=O)OCC(=O)Nc2cccc(S(=O)(=O)N3CCOCC3)c2)c1C | ?

# (list continues)
SMILES | HPGD inh
Cc1nc(N2CCOCC2)nc(N2CCCC2)c1[N+](=O)[O-] | 2%
CCC(Sc1nnnn1-c1ccccc1)C(=O)NC(C)c1ccccc1 (centres undefined) | -4%
COc1ccc(-c2csc(N3CCC(c4ccccc4)C3)n2)cc1 (centres undefined) | -13%
Cc1cc(NC(=O)c2ccc3nc(-c4ccccc4)c(-c4ccccc4)nc3c2)no1 | -16%
O=C(CSc1nc2c(c(=O)[nH]1)CN(Cc1ccc(F)cc1)CC2)Nc1ccc(F)cc1 | -13%
COc1ccc(-c2noc(-c3ccccc3F)n2)cc1 | -23%
Cc1cccc(OCc2nnc(SCc3cc(=O)n4cc(Br)ccc4n3)o2)c1 | ?
COC(=O)[C@@H]1C[C@@]2(O)[C@H](O)[C@H](O)[C@H](O)C[C@H]2N1Cc1ccc(N2CCN(C)CC2)cc1 | -17%
CCOC(=O)c1ccc(N2Cc3ccccc3C2)cc1O | -18%
O=C(CN1CCC(n2nnc3cc(F)ccc32)CC1)NCCc1ccccc1 | 4%
O=C(CCCn1c(=S)[nH]c2ccccc2c1=O)N1CCCCC1 | 10µM*
O=C(Cc1ccc(Cl)cc1)Nc1ccccc1CO | -5%
O=C(O)CP(=O)(O)O | 32µM*!
COC(=O)c1c(N2C(=O)[C@H]3[C@@H](C2=O)[C@]2(C(=O)Nc4c(C)cccc42)N2CCC[C@@H]32)sc(C)c1C | -17%
S=C(NCCc1ccccc1)N1CCN(Cc2ccccc2)CC1 | 2%
O=C(c1ccncc1)N1CCC2(CC1)CN(c1ccc(-c3ccccc3)cc1)C2 | -12%
CCC(Sc1nnnn1-c1ccccc1)C(=O)Nc1nc2ccccc2s1 (centres undefined) | -15%
CCOC(=O)C(C)Sc1ncnc2c1nnn2-c1ccc(F)cc1 (centres undefined) | -18%
Cc1cc(C(=O)COC(=O)Cn2cnc3c2c(=O)n(C)c(=O)n3C)c(C)n1C | -1%
Nc1nc(Nc2cccc(F)c2)nc2ccccc12 | -12%
COc1cc2cccc(OC)c(=O)c2c(O)c1OC | -1%
Nc1c(C(=O)c2ccccc2)sc2snc(SCC(=O)c3ccccc3)c12 | -29%
O=C(COC(=O)c1ccc(Sc2ccccc2)c([N+](=O)[O-])c1)NC1CCS(=O)(=O)C1 (centres undefined) | -7%
O=C(O)c1ccc2c(c1)C(=O)N(C(Cc1ccc(O)cc1)C(=O)O)C2=O (centres undefined) | -10%
c1ccc(-n2c(SCC3CCCCO3)nnc2-c2cnccn2)cc1 (centres undefined) | 28µM*
Cc1cccc(C)c1NC(=S)N(c1ccccc1)C(C)C | -4%
CCOc1ccccc1NC(=O)CN(C)S(=O)(=O)c1ccc(OC)c(C)c1 | 16µM*
CC1(C)CC(=O)C=C(NCc2ccc(Cl)c(Cl)c2)C1 | -11%

# Compound activity as filed in PubChem BioAssay.
